Bead autofluor: counter-screen for toxin protease inhibitors: compound fluorescence | compound autofluorescence counterscreen, microsphere flow cytometry; active compounds read high | fluorescence intensity (test concentration not listed) | 360,000 tested, 3.1% active | AID 624483;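 active = at least 3 SD above the mean of all compounds, about 16000 in these data; inconclusive = too few beads counted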;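 also: 100 nL of 1 mM stock went into each well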
Mtb hypoxia inh: inhibitors of hypoxia-regulated fluorescent reporter in Mycobacterium tuberculosis | AID 1159583 | fluorescence inhibition, % (no concentration beside the values) | M. tuberculosis hypoxia-regulated fluorescent reporter, fluorescence | 300,000 tested, 0.1% active;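 active = 35 to 45% if threefold the growth effect, above 45% if 1.5-fold the growth effect; inactive = the rest, general growth blockers included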;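 also: wells of about 50 µL received 100 nL stock; 0% = vehicle wells and 100% = reference inhibitor wells; whole bacteria with a GFP reporter of the hypoxia response; strong numbers were not always called active; many hits fall short of the cut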
BJeLR viability: kills HRASV12-expressing BJeLR cells | inhibition, % (concentration not given with the values) | 300,000 tested, 0.17% active | AID 1554 | BJeLR (HRASV12) viability, CellTiter-Glo ATP luminescence, 48 h; reference of the scale not given here;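 active = replicate mean above 50%; inconclusive = above 50% but judged a plate artefact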;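 also: 50 nL library stock added to about 25 µL; numbers are from one replicate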
Sa ugtP lethal: growth inhibition of S. aureus ugtP deletion strain; S. aureus RN4220 ugtP deletion, OD600 growth, 16 h; some inactives read as strong as hits; 330,000 tested, 0.54% active; growth inhibition, % (concentration not given with the values);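 active = z-score under -3 and OD600 up to 0.15 on both plates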;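 also: plate controls were untreated wells for no effect and antibiotic for full effect; wells of about 80 µL received 100 nL stock; the first replicate is given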
RN4220 kill: kills Staphylococcus aureus RN4220. S. aureus RN4220 growth, OD600, 16 h. inhibition, % (test concentration not listed). AID 1259311. 330,000 tested, 0.33% active;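 active = z-score of -3 or lower and OD600 up to 0.18 on both plates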;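 also: plate controls were untreated cells for no effect and reference antibiotic for full effect; stock transfer was 100 nL into about 80 µL; one replicate is shown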
PrP 5UTR inh: inhibition of PrP 5' UTR reporter expression; cell-based PrP 5' UTR mRNA reporter, plate reader; inhibition, % (concentration not given with the values); 340,000 tested, 0.35% active; AID 488862;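 active = every replicate at 50% or more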;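 also: 0 = median of the neutral control wells; tested in H4 reporter cells; numbers are from one replicate; inactives centre near -14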
Mtb hypoxia inh growth: also measured in Mtb hypoxia inh; calls as there; growth inhibition, %; measured here: M. tuberculosis growth (absorbance);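 0% = vehicle and 100% = reference antibiotic; read after six days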
The depositor's hits bear a star; ? = inconclusive; / = no result given.

The opening 3 compounds, ahead of the listing:
The line under a structure holds: Bead autofluor, Mtb hypoxia inh, Mtb hypoxia inh growth, BJeLR viability, Sa ugtP lethal, RN4220 kill, PrP 5UTR inh
- Cc1ccc(-c2c[n+](CC(=O)c3ccc(Br)cc3)c3n2CCCCC3)cc1
→ 4945, 12.6, 20.7, 12.7, -23.1, 2.9, -18.9
- CNC(=O)CN1C(=O)NC2(CCc3ccccc3C2)C1=O (configuration not stated)
→ 3777, 4.6, 2.5, -11.8, 1.8, 6.5, -17.2
- Cc1ccc(OCC(=O)Nc2ccccc2-c2ccccc2)cc1
→ 7217, 2.4, -2.5, -0.8, 40.2, 5.4, -9.5

This part in full (from the top)
The line under a structure holds: Bead autofluor, Mtb hypoxia inh, Mtb hypoxia inh growth, BJeLR viability, Sa ugtP lethal, RN4220 kill, PrP 5UTR inh
- Cc1ccc(-c2c[n+](CC(=O)c3ccc(Br)cc3)c3n2CCCCC3)cc1
→ 4945, 12.6, 20.7, 12.7, -23.1, 2.9, -18.9
- CNC(=O)CN1C(=O)NC2(CCc3ccccc3C2)C1=O (configuration not stated)
→ 3777, 4.6, 2.5, -11.8, 1.8, 6.5, -17.2
- Cc1ccc(OCC(=O)Nc2ccccc2-c2ccccc2)cc1
→ 7217, 2.4, -2.5, -0.8, 40.2, 5.4, -9.5
- COc1ccc(N(C(=O)C2COc3ccccc3O2)C(C(=O)NC2CCCCC2)c2ccccc2)cc1OC (configuration not stated)
→ 2524, 6.0, 5.2, -13.6, 7.5, 3.5, -3.1
- CN(C)C(=O)Oc1cccc(NC(=O)N2CCOCC2)c1
→ 2591, 7.8, 4.7, -8.2, -6.5, -9.3, -5.6
- COc1cccc(C=NCCNC(=O)c2nonc2N)c1O
→ 4324, /, /, /, 1.4, 2.9, -18.6
- CCOC(=O)C1C(=O)OC2(CCCCC2)C1C(=O)OCC (configuration not stated)
→ 4977, 1.1, -2.5, -0.9, 13.3, 5.3, -29.1
- Cc1ccc(OCC(=O)NCCN2CCCC2)cc1
→ 3573, /, /, -1.2, 12.4, 0.1, 0.8
- O=C(c1ccc2c(c1)OCO2)N(c1ccccc1)C1C=CS(=O)(=O)C1 (configuration not stated)
→ 5034, /, /, -1.2, 2.2, -0.5, -5.7
- COc1ccc(Cl)cc1C(=O)Nc1nc(C)cc(C)n1
→ 3773, 3.1, 6.0, -6.9, 2.1, 0.6, -17.3
- COc1ccccc1NS(=O)(=O)c1ccc(N2CCOCC2)c(NC(=O)c2ccco2)c1
→ 3323, -0.2, 2.9, -3.7, 6.9, -2.2, -5.9
- CC(/C=C/c1ccccc1)=N\NC(N)=S
→ 9275, /, /, -1.2, /, /, -23.7
- O=C1NC(=O)/C(=C\c2ccc(Sc3ccc(Cl)cc3)o2)N1
→ 2424, /, /, -1.7, -2.5, -1.3, -16.8
- O=C(CCc1nc(-c2ccccc2Cl)no1)Nc1cccnc1
→ 5557, 9.5, 4.8, 0.3, 0.5, 1.4, -10.2
- CCN(CC(=O)Nc1cc(Cl)ccc1C)C(=O)c1ccc2c(c1)NC(=O)C(C)S2 (configuration not stated)
→ 7035, -3.3, 4.9, -3.9, 1.1, 3.5, -9.2
- CCOC(=O)N1CCN(C(=O)C2CCCN(S(C)(=O)=O)C2)CC1 (configuration not stated)
→ 10450, 5.2, 7.0, -11.2, 12.0, 4.8, -18.3
- Cc1ccccc1SCC(=O)NCCCn1ccnc1
→ 4376, 10.7, 7.1, -5.0, 1.4, 2.3, 0.8
- O=S(=O)(CC(O)COc1ccc(Br)cc1)c1ccccc1 (configuration not stated)
→ 5404, 0.8, 7.3, 1.0, 2.2, 2.1, -21.2
- O=C(NCc1ccccc1)c1onc(CSc2ccc(F)cc2)c1C(=O)NCc1ccccc1
→ 3462, 4.3, -7.6, -4.1, -8.0, -3.7, -7.1
- COc1ccc(S(=O)(=O)N(C)CC(=O)NCc2ccccc2)cc1OC
→ 3065, 2.5, -1.1, 2.0, 6.2, 1.7, -25.9

Looked up above.
Mtb hypoxia inh, `COc1ccc(S(=O)(=O)N(C)CC(=O)NCc2ccccc2)cc1OC` : 2.5
Mtb hypoxia inh growth, `COc1ccc(Cl)cc1C(=O)Nc1nc(C)cc(C)n1` : 6.0
BJeLR viability, `Cc1ccccc1SCC(=O)NCCCn1ccnc1` : -5.0
BJeLR viability, `Cc1ccc(OCC(=O)NCCN2CCCC2)cc1` : -1.2
Bead autofluor, `Cc1ccc(OCC(=O)Nc2ccccc2-c2ccccc2)cc1` : 7217
PrP 5UTR inh, `CCOC(=O)C1C(=O)OC2(CCCCC2)C1C(=O)OCC` (configuration not stated) : -29.1

Later entries.
The line under a structure holds: Bead autofluor, Mtb hypoxia inh, Mtb hypoxia inh growth, BJeLR viability, Sa ugtP lethal, RN4220 kill, PrP 5UTR inh
- Cc1cc(C)cc(Nc2cc(C)nc3nc(C)nn23)c1
→ 5790, /, /, -1.7, -1.6, 3.0, -13.0
- COc1ccccc1N(C)S(=O)(=O)c1ccc(Cl)c(C(=O)Nc2ccccc2N2CCOCC2)c1
→ 3607, 10.8, 7.6, /, -0.4, 2.3, -21.2
- COc1ccc(Cl)cc1NC(=O)CSc1nnc(-c2ccco2)o1
→ ?, 3.7, 3.9, -13.1, -5.0, -0.8, -3.9
- Cc1cccc(OCC(O)CNC(=O)c2ccccc2C(=O)O)c1 (configuration not stated)
→ 3251, /, /, -6.0, -0.5, 0.0, -16.5
- Cc1n[nH]c(=S)c2nn(-c3ccccc3)c(C)c12
→ /, 0.0, 0.0, -5.2, 0.7, -9.1, /
- C/C(=N\NC(=O)c1n[nH]c2c1CCC2)c1cccs1
→ 3747, /, /, 24.4, /, /, 75.9*
- COc1ccc(NC(=O)CC2C(=O)N(c3ccc(OC)cc3)C(=S)N2NC(=O)c2cccc(F)c2)cc1 (configuration not stated)
→ 2498, 1.1, 0.1, -8.8, 1.9, 5.2, -21.9
- COCC(C)NC(=O)c1cccc([N+](=O)[O-])c1 (configuration not stated)
→ 4165, 16.3, -4.3, 3.4, 7.0, 4.2, -12.9
- COc1ccccc1-c1cc(C(=O)N/N=C\c2cn(C)nc2C)c2ccccc2n1
→ 2562, /, /, -2.2, /, /, -17.4
- CCOC(=O)C(O)(c1ccc(N(CC)S(=O)(=O)c2ccc(C)cc2)cc1)C(F)(F)F (configuration not stated)
→ 6229, -1.8, 2.3, 15.5, 13.0, 9.1, /
- Cc1ccc(NC(=O)C2(S(=O)(=O)c3ccc(Cl)cc3)CC2)cc1
→ 5557, -1.1, 15.1, -2.7, 2.3, 3.4, 3.2
- CN1C(=O)C(O)(CC(=O)c2ccc(F)cc2)c2cc(Br)ccc21 (configuration not stated)
→ 5450, /, /, -3.1, 6.9, 4.0, 8.4
- COc1ccc(S(=O)(=O)N2CCCC(C(=O)NCC3CCCO3)C2)cc1OC (configuration not stated)
→ 3573, -0.8, -7.9, 7.1, 10.3, 3.6, -23.4
- Cc1ccccc1CSCCNC(=S)Nc1ccccc1
→ 2084, 5.2, 7.3, 4.4, -9.4, 12.8, -11.3
- CCN(CC)CCCNc1nnc(C)c(=O)[nH]1
→ 3025, /, /, 3.1, -1.9, -0.2, -0.2
- CNC(=O)C(=O)Nc1cc2c3c(c1)CCC(=O)N3CCC2
→ 4498, 2.2, -5.6, -6.1, 1.9, 0.3, -0.1
- CCN1CCN(S(=O)(=O)c2ccc(Cl)c(C(=O)NC(C)c3ccccc3Cl)c2)CC1 (configuration not stated)
→ 4596, -3.7, -10.3, 5.8, 9.0, 3.4, 5.4
- COc1ccc(C(CNC(=O)C2CCN(S(=O)(=O)c3ccc(F)cc3)CC2)N(C)C)cc1 (configuration not stated)
→ 3363, 3.6, 7.6, 3.3, 7.0, 2.0, -20.2
- CN(C)CCNC(=O)c1cc2c(s1)-c1ccc(Cl)cc1SC2
→ 4339, /, /, 78.7*, /, /, 17.0
- O=C(NN=Cc1ccccc1)C1CCCN1C(=O)c1cc([N+](=O)[O-])cc([N+](=O)[O-])c1 (configuration not stated)
→ /, 5.4, 11.7, /, 3.1, -4.0, /

Later entries:
The line under a structure holds: Bead autofluor, Mtb hypoxia inh, Mtb hypoxia inh growth, BJeLR viability, Sa ugtP lethal, RN4220 kill, PrP 5UTR inh
- CC(C)Oc1cccc(C(=O)C2CCCN(Cc3ccc4nonc4c3)C2)c1 (configuration not stated)
→ 4350, 21.3, 11.7, -10.4, 8.1, 41.7, -7.4
- O=C1C2C(c3cccc(/C=C/c4ccccc4)c3)CC=CC2C(c2ccc3ccccc3c2)N1Cc1ccccc1 (configuration not stated)
→ 4186, /, /, 5.0, /, /, -19.7
- Fc1ccc(NCc2nnc(SCc3nnc(-c4ccccc4)o3)n2CC2CCCO2)cc1 (configuration not stated)
→ 9596, 5.2, 2.2, -1.4, 9.3, -0.9, -15.0
- CCN(CC(=O)Nc1c(F)cccc1F)C(=O)CSc1nc2ccccc2o1
→ 4576, 4.7, 3.9, -2.2, 12.4, 5.7, -8.2
- Cc1cccc(NS(=O)(=O)c2ccc(C(=O)N3CCN(c4ccccc4O)CC3)cc2)c1C
→ 4603, 6.7, -3.9, -4.2, -1.8, 7.0, -35.7
- Cn1nc(C(F)(F)F)c(-c2ccc(F)cc2)c1NC(=O)Nc1ccc(F)cc1
→ ?, -0.5, 3.0, 3.6, -32.2, -7.0, -15.4
- CC(Oc1ccc(Br)cc1Cl)C(=O)Nc1ccncc1 (configuration not stated)
→ 4036, -3.6, 5.0, 18.3, -2.0, 2.0, -14.2
- Cc1nnc(NC(=O)CSCc2ccccc2)s1
→ 6166, 1.6, -0.2, 7.8, 3.8, 4.6, -16.4
- O=c1c2ccccc2[nH]c2ccc(F)cc12
→ 4010, -4.2, 4.9, 4.5, -5.2, 1.3, -50.8
- CC(C)CC(=O)c1c[nH]c(C(=O)NCC2CCCO2)c1 (configuration not stated)
→ 4843, /, /, -5.4, -12.6, -6.0, 1.8
- CCc1nnc(NC(=O)CSc2nnc(-c3ccc(NS(=O)(=O)c4ccccc4)cc3)o2)s1
→ 7082, -3.6, 9.7, 10.6, -23.1, 5.5, -9.3
- COc1ccc(CCN(C(=O)/C=C/C(=O)O)C2CC(=O)N(c3ccccc3)C2=O)cc1 (configuration not stated)
→ 3360, 0.2, 0.6, -7.4, 2.8, 0.4, -3.8
- COc1ccc(S(=O)(=O)NCCCCNS(=O)(=O)c2ccc(OC)cc2)cc1
→ 6670, -0.8, -2.3, -4.8, -1.9, -1.6, 2.7
- CC(=O)c1ccc(N2CCN(c3ncc(C(F)(F)F)cc3Cl)CC2)cc1
→ 2851, 18.2, 9.4, -4.1, 5.7, -10.1, -28.3
- CCOc1cc(/C=N/NC(=O)C2CCCC2)ccc1O
→ 5884, /, /, 5.1, /, /, -14.8
- CCCCOc1ccc(C(=O)Nc2ccncc2)cc1
→ 3218, -0.7, 7.1, 15.0, 12.9, 16.9, -51.9
- CC(OC(=O)CC1CCCCC1)C(=O)Nc1cccc(C#N)c1 (configuration not stated)
→ /, -3.1, -8.9, -9.7, 14.0, 5.4, -12.2
- O=C(NCCCN1CCCC1=O)c1cc(COc2ccc(F)cc2F)on1
→ 6100, 9.9, 5.7, -3.3, 1.1, 3.0, -17.0
- CCc1nnc(NC(=O)[C@@H]2CCCN2S(=O)(=O)c2ccc3c(c2)OCCO3)s1
→ 2462, /, /, -0.7, /, /, 2.5
- CC1=NN(c2ccccc2)C(=O)/C1=C\c1cn(-c2ccccc2)nc1C
→ 2349, 13.1, -3.3, 6.1, 0.3, 6.4, -8.1

Screens (PubChem BioAssay)
